gsp agonist: activates gsp, the McCune-Albright syndrome mutation | gsp mutant cells, cAMP HTRF, 30 min; control for the full effect not named in the record | Potency, µM (top dose mostly 76.9 µM), for inactives: at the top dose activation (cAMP increase), usual class: activators | 340,000 tested, 0.13% active | AID 624287; active = well fitted activation curve with a large enough effect; inconclusive = small, poorly fitted or top-dose-only effect, or another doubt; inactive = no such curve, though single readings can be large or run the other way; cell line not stated here;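 further: phosphodiesterase inhibitor Ro 20-1724 added with compounds to block cAMP breakdown; potency means the concentration at half of the fitted maximal effect; nearly all actives have a fitted effect of over 60% in size; about a fifth of the inactives were tested at one dose only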
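Cells in DMEM/10% FBS with G418 were pretreated with compounds in DMSO plus […] (300 uM stock) for 30 min at 37C. cAMP was measured by HTRF (cAMP-d2 plus anti-cAMP antibody-K) after 30 min at room temperature.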
CtBP-E1A inh: blocks the CtBP interaction with E1A; AID 651724; activity change, % (no concentration beside the values); AlphaScreen GST-E1A/His-CtBP binding, 1536-well; hits give low values; control for the full effect not named in the record; 340,000 tested, 0.49% active; in the data active means activity change below about -65%; inconclusive means about -30% to -65%; inactive means above about -30%; further: on the % scale 0 is the no-effect control and ±100 the full control effect; compound concentration not given in the record
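AlphaScreen with 125 nM GST-E1A and 125 nM His-CtBP (5X stocks) in Tris pH 8.0, 300 mM NaCl, BSA, Tween 20, TCEP. Compounds preincubated 2 h at 37 deg C, then glutathione donor/nickel acceptor beads added for 1 h at 37 deg C in dark.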
Six1-Eya2 inh: inhibitors of human Six1/Eya2 interaction; Q15475+O00167; AlphaScreen GST-Six1/His-Eya2 binding, biochemical; hits give low values; control for the full effect not named in the record; activity change, % (concentration not given with the values); 360,000 tested, 0.56% active; AID 651725; in the data active = activity change below about -65%; inconclusive = about -30% to -65%; inactive = above about -30%; further: on the % scale 0 is the no-effect control and ±100 the full control effect
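Compounds are tested against tagged Six1 and Eya2 proteins bridged by glutathione donor and nickel acceptor beads; after a one-hour incubation at 37 °C without light, AlphaScreen emission is recorded.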
D2 ag: agonists of human D2 dopamine receptor (beta-arrestin); P14416; DiscoveRx PathHunter D2 beta-arrestin, luminescence, 90 min; 100% = 57 uM dopamine signal; activation, % (no concentration beside the values); 360,000 tested, 0.084% active; AID 624465; in the data active = activation above about 40%; inconclusive = about 15% to 40%; inactive = below about 15%; further: compound concentration not given in the record; the text of the record calls up to 30% inactive
Target sequence (P14416 whole entry, looked up): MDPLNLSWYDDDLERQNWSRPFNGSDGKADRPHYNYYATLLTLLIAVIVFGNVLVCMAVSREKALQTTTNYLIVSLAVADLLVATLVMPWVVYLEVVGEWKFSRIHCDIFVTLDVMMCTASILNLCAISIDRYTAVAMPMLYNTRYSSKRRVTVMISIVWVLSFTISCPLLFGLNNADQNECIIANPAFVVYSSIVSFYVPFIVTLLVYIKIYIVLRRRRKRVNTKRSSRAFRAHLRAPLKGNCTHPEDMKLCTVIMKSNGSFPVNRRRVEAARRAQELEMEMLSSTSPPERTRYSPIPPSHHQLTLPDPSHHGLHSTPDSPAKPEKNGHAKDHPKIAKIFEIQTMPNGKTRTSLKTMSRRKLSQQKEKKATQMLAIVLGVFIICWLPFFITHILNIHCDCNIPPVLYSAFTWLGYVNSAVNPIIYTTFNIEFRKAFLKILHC
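DiscoveRx PathHunter D2 beta-arrestin cells (2,100/well) attached overnight, then compound-stimulated 90 min at 37 C in HBSS/10 mM HEPES/0.1% Tween-20 buffer; beta-galactosidase complementation read by luminescence after 1 h at ambient temperature. Dopamine 57 uM final (EC100) as control.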
gsp antag: antagonizes gsp, the McCune-Albright syndrome mutation; 340,000 tested, 0.4% active; Potency, µM (titrated, usually from 76.9 µM), for inactives: at the top dose activity change, negative = inhibition, actives largely listed as inhibitors; gsp-mutant cells, cAMP HTRF, 30 min; control for the full effect not named in the record; AID 624288; active = falling curve of any shape with a large fitted effect; inconclusive = falling curve, mostly with a smaller effect; inactive = flat or rising curve; cell line not stated here;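 further: intracellular cAMP measured with PDE inhibitor Ro 20-1724 present during compound exposure; potency means the concentration at half of the fitted maximal effect; on the % scale 0 is the no-effect control and ±100 the full control effect; nearly all actives have a fitted effect of over 65% in size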
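HTRF cAMP read-out (cAMP-d2 plus anti-cAMP antibody-K in lysis buffer, 30 min RT). Before lysis, cells are exposed to compounds with […] for 30 min at 37C in DPBS containing Ca/Mg, BSA and Tween 20.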
D2 PAM: potentiates the human D2 dopamine receptor allosterically | AID 624464 | 360,000 tested, 0.23% active | DiscoveRx D2 beta-arrestin cells, luminescence, 90 min; 100% = 57 uM dopamine signal | potentiation, % (test concentration not listed); active = potentiation of 50% or more; inconclusive = 30% to 50%; inactive = 30% or less;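 further: compound concentration not given in the record; tested on top of an EC20 dose of dopamine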
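D2 cells co-treated with compound plus 50 nM dopamine (EC20) for 90 min at 37 deg C to detect potentiation. Beta-arrestin recruitment was read as enzyme-fragment luminescence after 1 h at ambient temperature. Full response was set by 57 uM dopamine.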
The depositor's hits bear a star; u = inconclusive; x = not tested or not shown; [ ] = another dose, or the depositor's remark. Outcome played no part in choosing rows (roughly 1.4% active in at least one column).

gsp antag	CtBP-E1A inh	D2 ag	D2 PAM	Six1-Eya2 inh	gsp agonist	smiles
9.2%	-15.5	-3.9	-3.9	9.5	4.2%	CN(Cc1nc(-c2cccs2)no1)CC1COCCO1 (configuration not stated)
-7.6%	0.1	-0.1	10.8	-5.4	-15.5%[15.4 µM]	COc1cccc(CNC(=O)CN2C(=O)NC(c3ccccc3)(c3ccccc3)C2=O)c1
0.5%	-9.0	-0.2	3.5	4.2	9.7%	Cc1cccc2[nH]c3c(=O)n(CCN4CCNCC4)cnc3c12
-2.5%	-9.8	7.9	0.9	-4.7	19.8%	CCCCn1c(=O)[nH]c(=O)c2c1nc(-c1ccc(OCC)cc1)n2CC
-11.7%	5.2	-8.7	-18.4	0.9	-36.5%[inhibitor]	Cc1c(C(=O)OCC(=O)N(C)c2ccccc2)oc2ccccc12
-24.2%	0.9	3.9	-6.5	3.2	3.0%	CN(Cc1ccccc1)S(=O)(=O)c1ccc(N2CCCC2=O)cc1
1.2%	-7.2	-3.7	-7.2	-11.5	1.3%	COc1ccccc1/C=C/C(=O)NCC(=O)N/N=C(/C)c1ccco1
-3.3%	0.4	-3.5	-9.0	-0.5	7.1%[15.4 µM]	Clc1ccc(NCc2cccnc2)cc1
8.3%	-9.1	-1.6	-3.9	-0.6	15.6%	O=C(NCc1ccccc1)c1noc2c1CCCCC2
7.8%	8.7	-1.6	7.0	8.1	-38.2%[inhibitor]	CCCn1c(SCC(=O)N2CCCCC2)nnc1-c1ccco1
-2.4%	9.8	2.6	-18.0	-0.4	-20.1%	N#CCCN(C(=O)COC(=O)c1ccc(S(=O)(=O)N2CCOCC2)cc1)c1ccccc1
x	1.1	-1.5	-7.7	0.3	x	Cc1cc2oc(=O)cc(CN3CCCC3)c2cc1C
9.1%	6.4	2.6	8.3	0.7	25.3%	C=CCn1c(SCC(=O)Nc2ccc(-c3nc4ccc(C)cc4s3)cc2)nnc1-c1ccncc1
8.2%	-4.0	-3.8	-3.2	0.0	-4.4%[15.4 µM]	CCC1CCC2(CC1)NC(=O)N(CC(=O)Nc1ccc(OC)cc1)C2=O (configuration not stated)
17.1%	-4.7	-2.8	3.8	-10.0	24.5%	Cc1cccc2cc(CN(CC3CCCO3)C(=O)c3cccnc3)c3nnnn3c12 (configuration not stated)
-12.7%	0.0	-1.3	-8.6	-7.9	-11.5%	COc1ccc(NC(=O)c2c(-c3ccccc3Cl)noc2C)c(OC)c1
-23.1%	-6.1	3.9	4.0	-0.4	u	COCCNc1c(-c2ccc(OC)c(OC)c2)nc2ccc(Cl)cn12
u	-6.2	-0.5	-6.8	1.1	-0.8%	Cc1cccc(S(=O)(=O)C(C#N)c2nc3ccccc3nc2N2CCOCC2)c1 (configuration not stated)
5.6%	-14.1	0.5	-5.6	-2.3	0.0%[15.4 µM]	COc1ccc(CNC(=S)Nc2ccc(OC)cc2)cc1
5.9%	5.2	1.7	-4.3	16.3	22.8%	CCOC(=O)COc1cccc2c(=O)n(CC(=O)N3CCCCC3)ccc12
10.1%	6.6	-2.1	-1.3	0.5	-16.0%	O=C(Nc1ccc(Br)cn1)C1CCCN1S(=O)(=O)c1ccccc1 (configuration not stated)
5.5%	5.6	1.6	1.3	2.0	-28.9%	COCCNC(=O)c1cc(-c2ccc(Cl)c(Cl)c2)on1
-14.1%	-3.3	5.4	-10.1	-1.2	x	COc1cc(O)c(CC=C(C)C)c(O)c1C(=O)CCc1ccc(O)cc1
-22.1%	x	-2.9	-5.5	-0.8	-56.7%[inhibitor]	CCCCN(C(=O)CSc1nnc(-c2ccc(OC)cc2)n1C(C)C)c1c(N)n(Cc2ccccc2)c(=O)[nH]c1=O
6.1%	-16.6	2.3	-5.0	0.8	7.8%	CC(=O)[C@@]12O[C@@H]1C[C@H]1[C@@H]3CC[C@H]4C[C@@H](O)CC[C@]4(C)[C@H]3CC[C@@]12C
-9.5%	6.0	-3.3	-11.5	5.4	5.8%	O=C(Nc1ccc(Cl)cc1)C1CCN(C(=O)c2ccco2)CC1
-6.2%	u	-1.6	-12.6	u	u	CCOC(=O)N1CCN(C2=C(NS(=O)(=O)c3ccccc3)C(=O)c3ccccc3C2=O)CC1
-15.5%	6.4	2.0	-1.3	-2.4	-1.3%[15.4 µM]	COc1ccc(NS(=O)(=O)c2ccc(N3CCOCC3)c(NC(=O)c3ccc(F)cc3)c2)cc1
-0.3%	-1.8	-4.5	-10.4	-10.9	10.5%	Oc1ccccc1CNc1nc2ccccc2n1CCN1CCCCC1
13.0%	5.2	0.3	-2.6	-0.4	x	CCC1=C2CC[C@H]3C(=O)N(C)C(=O)[C@H]3[C@H]2[C@@]2(Cc3ccccc3)C(=NCC(=O)OC)OC(=O)N2C1=O
-14.0%	5.1	-7.3	1.6	0.5	x	COC(=O)c1c(C)[nH]c(C)c1C(=O)c1ccccc1Cc1ccccc1
10.6%	2.9	-0.9	-10.1	-9.1	-25.4%	CN(C)c1cc(-c2ccccc2)nc(N)n1
u	-11.7	0.9	-17.2	-6.1	25.0%	CC(=O)c1ccc(N2CCN(C(=O)C3CCN(S(=O)(=O)c4ccc5c(c4)CC(C)N5C(C)=O)CC3)CC2)cc1 (configuration not stated)
x	-1.7	-6.3	-3.3	-10.1	x	O=C(NC1CC1)c1[nH]c(C(F)(F)F)nc1-c1ccccc1
7.1%	4.8	-3.0	-17.9	-3.4	-4.2%	Cc1cccc(NC(=O)C2CCCN2S(=O)(=O)c2ccc(F)cc2)c1C (configuration not stated)
-8.1%	-6.4	-0.6	-4.7	-4.2	1.3%	COc1cc(OC)c(NC(=S)Nc2cccc(C)c2)cc1Cl
15.3%	2.7	-5.7	-5.7	0.2	u	CCOC(=O)C1CCN(C(=O)Cn2nc(CC)n3cccc3c2=O)CC1
5.0%	-1.9	-1.8	2.1	-2.5	-3.7%	N#CCCN(C(=O)Nc1ccccc1)c1ccccc1
-16.2%	15.6	-3.1	-30.3	0.6	-29.4%	O=C(Nc1cccc(C(F)(F)F)c1)c1ccc(Cn2cc(Br)cn2)o1
-2.2%	19.1	-3.5	-12.7	14.2	-26.8%	CCCc1nc2c(s1)CCc1onc(-c3ccc(Cl)cc3)c1-2

Three entries from above, field by field:
Cc1cccc(NC(=O)C2CCCN2S(=O)(=O)c2ccc(F)cc2)c1C (configuration not stated)
  gsp antag: 7.1%	CtBP-E1A inh: 4.8	D2 ag: -3.0	D2 PAM: -17.9	Six1-Eya2 inh: -3.4	gsp agonist: -4.2%
COc1cc(OC)c(NC(=S)Nc2cccc(C)c2)cc1Cl
  gsp antag: -8.1%	CtBP-E1A inh: -6.4	D2 ag: -0.6	D2 PAM: -4.7	Six1-Eya2 inh: -4.2	gsp agonist: 1.3%
CCOC(=O)C1CCN(C(=O)Cn2nc(CC)n3cccc3c2=O)CC1
  gsp antag: 15.3%	CtBP-E1A inh: 2.7	D2 ag: -5.7	D2 PAM: -5.7	Six1-Eya2 inh: 0.2	gsp agonist: u

New compounds follow:
gsp antag	CtBP-E1A inh	D2 ag	D2 PAM	Six1-Eya2 inh	gsp agonist	smiles
12.3%	-16.8	-3.5	-2.9	-1.2	-47.9%[inhibitor]	CCN(CC)C(=O)CSc1nnc(CCNC(=O)OC(C)(C)C)o1
7.6%	-4.8	-2.4	3.7	5.0	0.9%	COc1ccccc1NS(=O)(=O)c1cc(C(=O)NCCCN2CCCC2=O)ccc1C
-30.9%	1.4	-3.3	-15.5	0.3	10.9%	COc1cccc(-c2cc3c(-n4cccc4)ncnc3o2)c1
-0.6%	3.8	1.4	5.9	-0.4	x	C/C=C/C=C/C(=O)N1CC2(CC(c3cccc(NC(=O)CCCCC)c3)=NO2)C[C@H]1C(N)=O (some centres not stated)
-31.7%	-0.3	-5.4	-4.7	6.0	-2.7%	O=C(COc1cccc2ccccc12)N/N=C/c1ccccc1OCc1ccc(C(=O)O)cc1
-16.9%	3.6	-2.9	-10.5	-1.7	13.1%[15.4 µM]	Cc1[nH]n(-c2ccccc2)c(=O)c1C(=O)c1ccccc1
-18.5%	3.2	4.5	-2.5	12.9	-4.0%[15.4 µM]	O=C(Nc1ccccc1)Nc1ccc(Br)c(Cl)c1
-22.9%	-15.7	2.1	6.3	-16.9	-34.6%[inhibitor]	Cc1cccc(Nc2nnc(SCC(=O)Nc3ccccc3[N+](=O)[O-])s2)c1C
-4.8%	5.2	-1.7	-9.8	1.5	20.9%	NC1=NC(=O)/C(=C\c2ccsc2)S1
-7.6%	-11.0	-4.8	-12.9	2.8	x	CC[C@]12CCCN3CCc4c(n(c5ccccc45)C(=O)C1)C32 (some centres not stated)
-0.4%	0.0	-4.5	-6.5	3.4	x	Cn1cc(S(=O)(=O)NC[C@H]2O[C@@H](n3cnc4c(N)ncnc43)[C@H](O)[C@@H]2O)cn1
2.2%	u	-3.9	3.2	-18.1	-0.5%[15.4 µM]	Cc1c(C=O)c2ccccn2c1C(=O)c1cccs1
-10.8%	-3.4	-2.2	1.5	3.3	-60.4%[inhibitor]	CCC(=O)N1CCN(c2ccc(Cl)cc2NC(=O)Cc2ccc(Cl)cc2)CC1
4.5%	-2.2	-1.1	-10.1	4.9	-61.5%[inhibitor]	CCOc1ccccc1CN1CCNC(=O)C1CC(=O)NCCc1ccccn1 (configuration not stated)
7.1%	-9.4	-1.3	-7.1	-14.8	u	COC(=O)c1[nH]c(C)c(/C(O)=C2\C(=O)C(=O)N(CCN3CCOCC3)C2c2cccnc2)c1C (configuration not stated)
3.7%	2.6	-6.3	-0.8	0.7	5.7%[15.4 µM]	CCOc1ncnc2c1sc1nc3c(cc12)COC(C)(C)C3
-0.1%	0.4	-1.8	5.8	3.1	-9.5%	O=C(NC1(C(=O)NC2CCCCC2)CCCCC1)c1ccc2c(c1)OCO2
-1.5%	11.0	-0.7	1.4	-6.7	-10.0%[15.4 µM]	COC(=O)c1[nH]c2ccccc2c1NC(=O)/C=C/c1ccc2c(c1)OCO2
7.9%	-8.1	-1.5	-9.8	9.0	8.1%	O=C1CC[C@H](O)CCN1[C@H](CSc1ccc(Br)cc1)Cc1ccccc1

From PubChem
